# Screening data (PubChem)
# KCNQ2 pot: enhances the rat KCNQ2 potassium channel; B-score at 10 µM; O88943; CHO-K1 KCNQ2, FluxOR thallium flux fluorescence; stronger effect = higher value; actives 0.54% (n = 310,000); AID 2239;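 active means fluorescence ratio B-score at least 3 SD of library B-scores, with initial fluorescence B-score within 3 SD, cut at about 5.3 in these data; same plate scores as AID 2156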;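 further: B-score of peak minus minimum over baseline fluorescence ratio after K+ and Tl+ stimulus; positive B-score means potentiation of KCNQ2 with more thallium influx and brighter signal; only the inactives scoring about 0 or higher are listed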
# Target sequence (O88943 whole entry, looked up): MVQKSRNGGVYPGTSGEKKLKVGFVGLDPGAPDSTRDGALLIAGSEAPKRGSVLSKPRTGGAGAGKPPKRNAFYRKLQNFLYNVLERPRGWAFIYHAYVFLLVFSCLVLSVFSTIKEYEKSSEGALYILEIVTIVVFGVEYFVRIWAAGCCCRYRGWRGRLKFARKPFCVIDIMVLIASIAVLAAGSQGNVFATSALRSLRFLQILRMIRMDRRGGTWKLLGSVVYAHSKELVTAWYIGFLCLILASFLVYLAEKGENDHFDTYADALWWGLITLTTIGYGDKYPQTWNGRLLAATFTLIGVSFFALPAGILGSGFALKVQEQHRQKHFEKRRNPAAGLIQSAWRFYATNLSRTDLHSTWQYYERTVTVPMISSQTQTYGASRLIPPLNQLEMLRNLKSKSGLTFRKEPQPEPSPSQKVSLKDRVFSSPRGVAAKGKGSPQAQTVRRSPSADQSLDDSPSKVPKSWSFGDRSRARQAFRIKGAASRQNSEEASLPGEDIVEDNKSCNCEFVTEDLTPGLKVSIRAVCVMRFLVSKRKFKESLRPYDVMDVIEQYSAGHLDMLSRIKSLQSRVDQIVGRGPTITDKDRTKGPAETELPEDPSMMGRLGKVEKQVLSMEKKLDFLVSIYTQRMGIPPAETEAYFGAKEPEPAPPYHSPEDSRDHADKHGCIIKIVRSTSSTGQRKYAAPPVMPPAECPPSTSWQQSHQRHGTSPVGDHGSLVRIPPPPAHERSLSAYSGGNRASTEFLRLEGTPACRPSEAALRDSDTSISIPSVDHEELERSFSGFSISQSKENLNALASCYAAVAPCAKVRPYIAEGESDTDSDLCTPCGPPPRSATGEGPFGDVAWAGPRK
# KCNQ2 pot baseline: also measured in KCNQ2 pot; calls as there; B-score; compound at 10 µM; measured here: initial fluorescence intensity artifact check;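 brightness before thallium and not channel activity; 0 = typical well and far values either way flag optical interference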
# * = called active by the depositor. Not all compounds are listed; the hit share may differ from the screen's.
KCNQ2 pot | KCNQ2 pot baseline | structure
0.91 | -1.3 | Cc1cc(C(F)(F)F)n2nc(-c3cnn(C)c3C(F)(F)F)c(Cl)c2n1
3 | -0.71 | Cc1ccc(NC(=O)CN2C(=O)C(C)Oc3ccccc32)nc1 (stereo unspecified)
0.95 | 0 | COc1ccc(CN(C(=O)CNC(=O)c2ccco2)C(C(=O)NCC2CCCO2)c2ccc(OC)c(OC)c2)cc1 (stereo unspecified)
1.7 | -0.12 | COc1cccc(C(=O)N2N=C(c3ccccc3)CC2(O)C(F)(F)F)c1 (stereo unspecified)
2.1 | 1.2 | COc1ccc(NC(=O)CSc2nccn2Cc2ccc(F)cc2)cc1
0.8 | 1.8 | O=C(CN1CCN(Cc2ccc3c(c2)OCO3)CC1)c1c[nH]c2ccccc12
0.72 | 0.36 | CC(C)Oc1ccc(CCNC(=O)C2CCC(=O)N(Cc3cccc(F)c3)C2)cc1 (stereo unspecified)
0.94 | -0.43 | CCN(CC(=O)NCc1cccs1)C(=O)c1ccc([N+](=O)[O-])o1
0.52 | -0.41 | CCOC(CNC(=O)CN1C(=O)COc2ccc(S(=O)(=O)N3CCOCC3)cc21)OCC
0.58 | 0.02 | COc1ccc(CCNC(=O)CSc2ccccn2)cc1OC
0.42 | -0.36 | CN1CCc2c(C#N)c(N3CCCCC3)nc(N3CCOCC3)c2C1
0.18 | 1.4 | Cc1ccc(S(=O)(=O)N2CCC(C(=O)C3C(=O)CCCC3=O)CC2)cc1
1.9 | -1 | Cc1cc(C)n(-c2nc3sc4c(c3c3nnc(SCC(N)=O)n23)CC(C)(C)OC4)n1
0.23 | -1.1 | Cc1ccc(SCC(=O)Nc2cc([N+](=O)[O-])ccc2O)cc1
0.09 | -2.5 | O=C(NCCc1ccccc1)C1CCN(Cc2cccc3ccccc23)CC1
1.9 | -0.77 | O=C(Nc1ccccc1C(=O)O)c1cc(S(=O)(=O)N2CCOCC2)c(Br)s1
0.89 | 0.27 | CC1(C)Cc2cccc(OCC(O)CNCc3ccccn3)c2O1 (stereo unspecified)
0.71 | -0.76 | COCCN(C(=O)COC(=O)c1ccc(C)s1)c1c(N)n(Cc2ccccc2)c(=O)[nH]c1=O
0.17 | 1.2 | CCCc1nnc(SCC(=O)N2C(C)CCCC2C)n1CC (stereo unspecified)
2.3 | -0.32 | COc1cc(C2Nc3ccccc3C(=O)N2c2ccccc2OC)ccc1O (stereo unspecified)
1.5 | 0.34 | CC(=O)c1ccc(N2CCN(S(=O)(=O)c3cc4[nH]c(=O)c(=O)[nH]c4cc3C)CC2)cc1
1 | -0.92 | O=C(Cn1nnc(-c2ccccc2F)n1)Nc1cccc2ncccc12
0.98 | -0.12 | Cc1ccc2cccc(OCCCOc3ccccc3F)c2n1
1.3 | -0.09 | CC(OC(=O)c1ccc(-c2ccc([N+](=O)[O-])cc2)o1)C(=O)NC(N)=O (stereo unspecified)
0.83 | -0.66 | Cc1ccc(NC(=S)N/N=C2\CC3CC=CC23)c(C)c1 (stereo unspecified)
0.68 | 0.6 | O=C(Cn1cncn1)N/N=C/c1ccncc1
1.1 | 0.5 | COc1ccc(Nc2ncnc3sc(C)cc23)cc1
1.1 | -0.14 | CC(Sc1nncs1)C(=O)NC1CCCCC1C (stereo unspecified)
2.4 | -1.5 | CC(C)c1ccc(C(=O)CC2(O)C(=O)N(CN3CCOCC3)c3ccccc32)cc1 (stereo unspecified)
0.27 | 0.1 | COCCOC(=O)/C(=C/c1ccc(OC(=O)c2ccccc2)cc1)C(C)=O
1.9 | -1.5 | O=C(O)c1cccc(NC2=C(n3nnc4ccccc43)C(=O)c3ccccc3C2=O)c1
1.7 | 0.04 | O=[N+]([O-])c1cccnc1Oc1ccccc1F
0.19 | -0.21 | COc1ccc(CCN2C(=O)CCC2(C)C(=O)NCc2cccnc2)cc1OC (stereo unspecified)
0.27 | 0.31 | CCCCn1c(SCc2nc3ccccc3s2)nc2cc(S(N)(=O)=O)ccc21
0.67 | 0.29 | COc1ccc2c(c1OC)CN(C)CCc1cc3c(cc1C(=O)C2)OCO3
0.8 | 0.01 | CCCC(=O)N(c1ccc(OCC)cc1)S(=O)(=O)c1ccc2c3c(cccc13)C(=O)N2C
0.42 | 0.34 | Brc1ccccc1C1=Nn2c(nnc2-c2ccccc2)SC1
0.27 | -0.7 | O=C(CN1C(=O)c2cccc3cccc1c23)Nc1ccc2c(c1)OCO2
0.64 | 1.7 | CN(C)c1nc(Nc2ccc(Cl)c(Cl)c2)nc(N(C)C)n1
0.02 | -0.26 | Cc1c(N=Cc2c(O)n(C)c(=O)c3ccccc23)c(=O)n(-c2ccccc2)n1C
0.88 | 0.04 | CC1(c2ccccc2)NC(=O)N(CC(=O)Nc2cccc(C#N)c2)C1=O (stereo unspecified)
0.24 | -3.3 | Cc1ccccc1NC(=O)Cn1cnc2c(oc3nc4c(cc32)CCCC4)c1=O
0.24 | -0.97 | OCc1nc(CO)n(Cc2ccccc2)n1
0.07 | 0.81 | Cc1ccc(CNC(=O)C2CC(c3cccc(F)c3)=NO2)cc1 (stereo unspecified)
0.19 | 0.61 | CCC(=O)N1CCc2cc(Br)cc(S(=O)(=O)CC(=O)OC)c21

# An excerpt of these results, bar-delimited:
molecule | KCNQ2 pot | KCNQ2 pot baseline
COc1ccc2c(c1OC)CN(C)CCc1cc3c(cc1C(=O)C2)OCO3 | 0.67 | 0.29
CCCC(=O)N(c1ccc(OCC)cc1)S(=O)(=O)c1ccc2c3c(cccc13)C(=O)N2C | 0.8 | 0.01
Brc1ccccc1C1=Nn2c(nnc2-c2ccccc2)SC1 | 0.42 | 0.34
O=C(CN1C(=O)c2cccc3cccc1c23)Nc1ccc2c(c1)OCO2 | 0.27 | -0.7
CN(C)c1nc(Nc2ccc(Cl)c(Cl)c2)nc(N(C)C)n1 | 0.64 | 1.7

# Other structures follow.
KCNQ2 pot | KCNQ2 pot baseline | structure
0.26 | -0.32 | CCOc1cc(S(=O)(=O)N2CCCC2)ccc1Cl
1.4 | 0 | O=C(NC1CCCCC1)C(=O)c1c[nH]c2ccccc12
0.42 | -0.41 | CCOc1ccc(NC(=O)CN2CCN(CC(=O)Nc3ccc(C(N)=O)cc3)CC2)cc1
0.24 | -1.2 | CCOc1ccc(NC(=O)CN(C)C(=O)c2ccc3[nH]c4c(c3c2)CC(C)CC4)cc1OCC (stereo unspecified)
4.5 | -0.67 | C/C(Sc1nnc(Cc2ccccc2)o1)=C(/O)c1ccccc1
0.61 | -2.4 | COc1ccc(-n2c(N)c(C#N)c3ccc([N+](=O)[O-])cc3c2=O)cc1
0.01 | 0.51 | Nc1ccc(Nc2nc(-c3ccncc3)cs2)cc1
1.1 | 0.17 | CC(C)Oc1ccc(CNC(=O)Cn2ccc3cc(S(=O)(=O)N4CCCC4)ccc32)cc1
0.28 | -1.2 | N#Cc1cn(-c2ccccc2)nc1-c1cc2ccccc2oc1=O
1.5 | -0.84 | NC(=O)NC(=O)COC(=O)CC12CC3CC(CC(C3)C1)C2
0.91 | 0.56 | O=C(Cc1ccccc1)NCC(=O)OCc1ccc([N+](=O)[O-])cc1
1.4 | 0.22 | O=C(Nc1cccc(NC(=O)c2ccc([N+](=O)[O-])o2)c1)c1ccco1
0.07 | -0.65 | O=C(NCc1ccccn1)Nc1cc(Cl)ccc1Cl
3 | 1.9 | Cc1cccc(N=C2NC(=O)/C(=C\c3cccs3)S2)c1
1.1 | 0.87 | COc1ccc(C(CC(=O)O)NC(=O)Nc2ccccc2)cc1OC (stereo unspecified)
0.75 | 0.46 | CC1(C)Cc2nc3oc4c(NCc5ccccc5)ncnc4c3cc2CO1
0.67 | -1.3 | COc1ccc(N(Cc2ccccc2)C(=O)CSc2nnc(Cn3nnc4ccccc43)o2)cc1
0.41 | 0.97 | CC(=O)Nc1ccc(-c2nnc(SCc3c(C)cc(C)cc3C)n2C)cc1
0.32 | -0.66 | Cc1cc(C)n2nc(S(=O)(=O)N(CC(C)C)CC(C)C)nc2n1
0.37 | -0.58 | CCCCCCC(C)n1[nH]c(=O)cc1N (stereo unspecified)
3.4 | -2.3 | COc1ccc(CNC(=O)C(=O)NC2CC(C)(C)NC(C)(C)C2)cc1
0.01 | 0.4 | CN1CCN(c2nc(C(N)=O)cc(-c3ccccc3)n2)CC1
1.8 | -0.59 | Cc1cccc(-n2c(=O)c3c(C)c(C)sc3n(CC(N)=O)c2=O)c1
0.28 | -0.75 | CCOC(=O)C1=NOC(COc2ccccc2C=O)C1 (stereo unspecified)
0.04 | 1.4 | CCCN(CCC)c1ccc(/C=C/c2ccc3cc(OCC)ccc3n2)cc1
0.16 | 0.01 | Cc1sc(N/N=C/c2ccco2)nc1-c1ccccc1
1.4 | -0.35 | O=C(Nc1ccc(F)cc1)Nc1cccc(Br)c1
0.3 | -0.5 | COCc1c(C(=O)N/N=C(\C)c2ccc(Cl)s2)nnn1-c1nonc1N
0.05 | -0.44 | CCOC(=O)C1=C(C)NC(=O)NC1c1ccc(-c2ccc(Cl)cc2)o1 (stereo unspecified)
0.69 | -2.5 | CCOC(=O)c1sc(NC(=O)Nc2ccccc2)cc1C
0.03 | -0.34 | Cc1cc(C)c(CN2CCC(n3nccc3NC(=O)C3CCOC3)CC2)cc1C (stereo unspecified)
1.5 | 0.6 | CSc1ccc(CN2CCN(CCC(C)C)C(CCO)C2)cc1 (stereo unspecified)
0.67 | -1.4 | CCC(=O)Nc1nc(-c2ccc3c(c2)CC(C)N3S(C)(=O)=O)cs1 (stereo unspecified)
1.6 | -0.68 | COc1ccc([N+](=O)[O-])cc1NC(=O)Cc1noc2ccccc12
1.1 | -2.6 | CCOc1ccccc1C1C(C(N)=O)=C(C)Nc2nc(-c3ccccc3Cl)nn21 (stereo unspecified)
0.01 | -0.44 | COc1ccc(C(=O)Nc2ccc(-c3ccc(NC(=O)c4ccc(OC)cc4)c(OC)c3)cc2OC)cc1
1.8 | 0.49 | Cc1ccnc(NC(=O)Nc2ccc(F)cc2)c1
0.97 | 1.3 | COc1ccc(C2=C(C)C(N3CCN(C(=O)c4ccco4)CC3)=NS2(=O)=O)cc1
0.03 | -0.06 | CC1=NN(c2ccccc2)C(=O)/C1=C/C=C/c1ccccc1
1.2 | 0.2 | O=C(Nc1ccc(N2CCN(Cc3ccccc3)CC2)cc1)c1cccnc1
0.09 | 1.1 | O=C(O)CNC(=O)c1ccc(NC(=O)/C(=C/c2ccccc2)NC(=O)c2ccccc2)cc1
0.95 | -1.4 | Cc1ccc(-c2nnc(NC(=O)c3c(F)cccc3Cl)s2)cc1
0.19 | -3.4 | O=C(NNC(=O)c1ccccc1Br)c1cccc(Cl)c1
0.01 | -0.1 | CCOC(=O)c1cccc(S(=O)(=O)N(CCO)Cc2cc3cc(OC)c(OC)cc3[nH]c2=O)c1
1.3 | 2.4 | CCc1ccc2oc(-c3cccc(N)c3)nc2c1

# Arranged by molar mass (largest number first): part of the list above.
KCNQ2 pot | KCNQ2 pot baseline | structure
0.01 | -0.1 | CCOC(=O)c1cccc(S(=O)(=O)N(CCO)Cc2cc3cc(OC)c(OC)cc3[nH]c2=O)c1
1.1 | -2.6 | CCOc1ccccc1C1C(C(N)=O)=C(C)Nc2nc(-c3ccccc3Cl)nn21 (stereo unspecified)
1.6 | -0.68 | COc1ccc([N+](=O)[O-])cc1NC(=O)Cc1noc2ccccc12
1.8 | 0.49 | Cc1ccnc(NC(=O)Nc2ccc(F)cc2)c1

# Continuation.
KCNQ2 pot | KCNQ2 pot baseline | structure
1.1 | 0.83 | COCc1cc(=O)n2[nH]cc(-c3ccsc3)c2n1
0.06 | -0.83 | COc1ccc(-c2n[nH]c(=S)n2-c2ccc(C)cc2C)cc1
1.7 | -1.8 | COc1ccccc1C(=O)N=C1SC2CS(=O)(=O)CC2N1c1ccccc1 (stereo unspecified)
0.84 | 0.29 | CC(C)(C)NC(=O)NC(=O)COC(=O)c1ccc2c(c1)S(=O)(=O)N=C1CCCCCN12
1.9 | -0.09 | Cc1ccc(CCNc2ccccc2)c[n+]1[O-]
0.49 | -0.4 | CCc1nc(NCCCCCO)c2nnn(Cc3ccccc3F)c2n1
3.5 | 0.72 | COc1ccc(OCCCCc2c(C)n[nH]c2C)cc1
0.71 | -2 | CC1=C(C#N)C(c2ccc(O)cc2)C(C#N)=C(C)N1
1.2 | -0.41 | CCOC(=O)Cn1nnnc1CN(Cc1cccs1)Cc1cc2cc(C)cc(C)c2[nH]c1=O
0.39 | 1.2 | CC(C)=C(NC(=O)c1ccccc1)C(N)=O
0.06 | -0.9 | O=C(Nc1nnc(-c2cccnc2)o1)c1cccc([N+](=O)[O-])c1
0.61 | 0.72 | O=c1cc(O)sc2ccccc12
0.06 | 1.3 | O=c1nc(-c2ccccc2)cc(-c2ccccc2)[nH]1
0.41 | -0.09 | CCOc1cc(C(=O)NC(C)C2CCCO2)cc(OCC)c1OCC (stereo unspecified)
0.11 | -1.2 | Cc1nn(Cc2ccc(C(=O)n3cccn3)o2)c(C)c1Br
0.15 | -0.55 | COc1ccc(N2CCN(CC(O)COCc3ccccc3)CC2)cc1 (stereo unspecified)
0.09 | 0.31 | COCC(=O)Nc1cc(Cl)c(OC)cc1OC
1.1 | -0.1 | COc1ccc(-n2nc(C(=O)NCC(=O)NCc3ccco3)c3ccccc3c2=O)cc1
1.5 | 0.73 | O=C(c1ccncc1)c1ccc(NC(=O)c2cccs2)cc1
0.34 | -0.06 | CC(C)C[C@@H](CO)N1CCN(C)CCC1=O
1 | -1.6 | COC1C(C)=C(C)C(=O)N1Cc1ccc(F)cc1 (stereo unspecified)
0.12 | -0.58 | COC(=O)COc1ccc(-c2ccccc2)cc1C=O
0.01 | 0.75 | CC(C)Oc1ccc(OCCn2c(S(=O)(=O)O)nc3c(N)ncnc32)cc1
0.66 | 0.77 | Cc1nc(NC(=O)CSc2nnc(Cn3nnc4ccccc43)n2C)sc1C
0.42 | -1.2 | COC(=O)c1sc2ncccc2c1OCc1c(Cl)cccc1Cl
0.02 | 0.36 | CCN(CC(=O)Nc1ccccc1OC)C(=O)CN1C(=O)NC2(CCCC2)C1=O
1 | 0.53 | COC(=O)C1=C(C(=O)OC)[C@@H]2Nc3ccccc3[C@@]23C[C@@H](C(=O)OC)N(C(=O)c2cc(C)oc2C)C3=N1
